Rango release inh = prevents RanGTP from dissociating the Rango-importin beta complex; O95149+P62826; Biochemical FRET Rango-importin beta, RanGTP-induced dissociation; Potency, µM (series often up to 46.1 µM), without a hit: top-dose activity change, negative = inhibition; hit rate 0.071% among 340,000; active means falling FRET ratio curve, often poorly fitted, with flat reads before Ran was added; inconclusive means other falling curves, or compound fluorescence or quenching; inactive means flat or rising ratio curve;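 note: potency is the fitted concentration of half-maximal effect; % of control where 0% means no effect; nearly all actives have a fitted effect of over 45% in size; -100% = wells without RanGTP and RCC1; the record marks most hits as doubtful in a second field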
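Two FRET readings bracket the reaction: one 5 min after compound meets Rango–importin beta, another 45 min after RanGTP-RCC1 (0.6 uM Ran, 0.2 uM RCC1, 2 mM GTP) is added. Only the second defines inhibition.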
GLA inh pH 4.5 = inhibitors of human alpha-galactosidase A at pH 4.5 | P06280 | purified enzyme, 4-MU-alpha-Gal fluorescence, pH 4.5 | activity change, negative = inhibition, % at 105 µM | 230,000 tested, under 10 active | AID 1467; inconclusive = small, poorly fitted or top-dose-only inhibition, or a rising curve; inactive = flat fitted curve, though single readings scatter; no compound was filed as active;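 note: 0% = full activity with enzyme and -100% = basal without enzyme; dose as in the result columns while the protocol names 77 µM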
Target sequence (P06280 whole entry, looked up): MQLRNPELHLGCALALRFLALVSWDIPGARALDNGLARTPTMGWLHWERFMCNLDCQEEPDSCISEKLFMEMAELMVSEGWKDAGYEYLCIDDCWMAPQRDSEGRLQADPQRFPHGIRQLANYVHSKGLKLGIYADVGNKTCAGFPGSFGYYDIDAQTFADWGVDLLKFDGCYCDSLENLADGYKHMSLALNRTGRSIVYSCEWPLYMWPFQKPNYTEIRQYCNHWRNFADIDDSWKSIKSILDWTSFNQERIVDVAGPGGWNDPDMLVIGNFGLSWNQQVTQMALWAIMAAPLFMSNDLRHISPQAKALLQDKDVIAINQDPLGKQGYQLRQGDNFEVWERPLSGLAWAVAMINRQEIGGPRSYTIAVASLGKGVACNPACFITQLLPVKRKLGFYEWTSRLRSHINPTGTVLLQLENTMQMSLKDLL
Rango-impB inh = inhibitors of Rango-importin beta complex formation | Rango CFP/YFP FRET sensor + importin beta, 45 min | Q14974 | hit rate 0.031% among 340,000 | Potency, µM (titrated, usually from 92.2 µM), for the others: top-dose inhibition of complex formation | AID 540263; active = rising FRET ratio curve, often small or poorly fitted; inconclusive = mostly compound fluorescence or quenching in the first reads; inactive = flat curves in all reads;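 note: potency is the fitted concentration of half-maximal effect; 0% = DMSO wells and 100% = buffer wells lacking importin beta; nearly all actives have a fitted effect of over 15% in size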
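FRET biosensor Rango (snurportin 1 IBB between N-terminal EYFP and C-terminal Cerulean), 50 nM in PBS/1 mM DTT/0.02% Tween-20/0.1% BSA, preincubated 5 min RT with compound; 0.125 microM importin beta added, 45 min RT, CFP/YFP FRET ratio read.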
miR-21 reporter = raises the signal of a miR-21 reporter | HeLa miR-21 FLuc reporter, luciferase, 48 h | Potency, µM (titrated, usually from 38.3 µM), inactives show at the highest dose reporter change, positive = more light | 340,000 tested, under 10 active; active = well fitted rising curve with a large enough effect; inconclusive = small, poorly fitted or top-dose-only effect; inactive = no such curve, though single readings can be large or run the other way;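 note: % of control where 0% means no effect; miR-21 action dims this reporter so a rising signal means less miR-21 action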
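Compounds were titrated across several concentrations (up to approximately 40 uM) and incubated 48 hours with HeLa miR-21-FLuc reporter cells (miR-21 target sequence downstream of FLuc, endogenous miR-21). Readout was firefly luciferase luminescence after lytic detection reagent.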
* marks the source's active call; other numbers are inactive results; ? = inconclusive; . = not tested or not shown.

Molecule | Rango-impB inh | miR-21 reporter | Rango release inh | GLA inh pH 4.5
O=[N+]([O-])c1ccc(/C([O-])=C(/C(=S)NCc2ccco2)[n+]2ccccc2)cc1 | -2.5% | -2% | 33% | -2
O=C(Oc1ccc(/C=N/O)cc1)c1ccccc1Cl | -2.2% | -30% | -15% | -1
Nc1nonc1-c1nc2ccccc2n1CC(=O)Nc1ccccc1 | 0.9% | -10% | 7% | -6
Cc1nnsc1-c1c(C(=O)N2CCOCC2)c(C)nn1-c1ccccc1 | 1.3% | -8% | -15% | -22
CCOC(=O)C(NC(=O)CC)(Nc1ccccc1OC)C(F)(F)F (stereo not given) | 3.3% | -6% | -7% | 0
O=C(C[C@H]1C/C=C\CC[C@H](Cc2ccc(F)cc2)C(=O)O[C@@H](c2ccccc2)CNC1=O)N[C@H](CO)Cc1ccccc1 | ? | . | -12% | .
COC(=O)c1cccc(COC(=O)c2cc3ccccc3oc2=O)c1 | -0.4% | -10% | 26% | .
Cc1ccc(-c2nnc(C)c(N3CCCC3)n2)cc1 | 0.2% | -3% | 15% | 1
Cc1ccc(-c2csc(-c3ccncc3)n2)cc1 | 0.8% | -57% | 17% | 5
COc1ccc(/C=N/NC(=S)Nc2ccccc2)cc1COc1ccccc1F | . | -4% | . | -6
CS(=O)(=O)c1ccc2nnn(OCC(=O)Nc3ccc(Br)cc3Br)c2c1 | -0.8% | 8% | 11% | -4
C=CC[N@@+]12CC[C@]34c5ccccc5N5/C=C6\C7N(/C=C(\C53)[C@@H](C[C@@H]41)/C(=C/CO)C2)c1ccccc1[C@@]71CC[N@@+]2(CC=C)C/C(=C\CO)[C@@H]6C[C@@H]12 (stereo not given in full) | 1.7% | . | 17% | .
O=C(NCCCc1ccccc1)C(=O)NCC1OCCN1S(=O)(=O)c1ccccc1 (stereo not given) | -0.4% | . | -1% | .
COc1ccc(/C=N/NC(=O)c2ccccc2F)cc1CN1CCN(c2ccc(F)cc2)CC1 | 0.7% | -22% | 0% | 1
O=C(Cc1ccccc1)Nc1ccc2oc(=O)ccc2c1 | 1.4% | -7% | 0% | -5
NC(=S)NN=C1C=CCCC1 | -4.6% | . | 6% | .

Whole records, quoted from the list. Values in the order: Rango-impB inh, miR-21 reporter, Rango release inh, GLA inh pH 4.5
O=C(Cc1ccccc1)Nc1ccc2oc(=O)ccc2c1 as listed: 1.4%, -7%, 0%, -5
COc1ccc(/C=N/NC(=O)c2ccccc2F)cc1CN1CCN(c2ccc(F)cc2)CC1 as listed: 0.7%, -22%, 0%, 1
Cc1ccc(-c2csc(-c3ccncc3)n2)cc1 as listed: 0.8%, -57%, 17%, 5
NC(=S)NN=C1C=CCCC1 as listed: -4.6%, ., 6%, .
C=CC[N@@+]12CC[C@]34c5ccccc5N5/C=C6\C7N(/C=C(\C53)[C@@H](C[C@@H]41)/C(=C/CO)C2)c1ccccc1[C@@]71CC[N@@+]2(CC=C)C/C(=C\CO)[C@@H]6C[C@@H]12 (stereo not given in full) as listed: 1.7%, ., 17%, .

Later entries
Molecule | Rango-impB inh | miR-21 reporter | Rango release inh | GLA inh pH 4.5
CCN(C1CCCCC1)S(=O)(=O)c1ccc(C(=O)O)cc1 | 4.1% | -3% | -15% | 2
COC(=O)c1ccc(N2CCN(C)CC2)c(NC(=O)COc2ccccc2Cl)c1 | -1.1% | -4% | -18% | .
CCOC(=O)CSc1nnc(-c2cccc(Cl)c2)n1CC | -1.5% | -2% | -8% | 4
CN1C(=O)[C@H]2[C@@H](/C=C/c3ccccc3)N3C(=O)CN(Cc4ccc(-c5ccccc5)cc4)C(=O)[C@@]3(Cc3ccccc3)[C@H]2C1=O | -1.4% | 1% | -2% | .
Cc1ccc(NC(=O)CSc2nnc(-c3ccncc3)o2)cc1 | 5.2% | -24% | -1% | 0
CCN1C(=O)[C@H]2[C@@H](c3ccc(-c4cccc(Cl)c4)cc3)N[C@@](C)(C(=O)OC)[C@H]2C1=O | 0.3% | . | -12% | .
CCN(c1ccccc1)S(=O)(=O)c1ccc2c(c1)N(C(C)=O)CCS2 | -0.2% | -3% | ? | .
COc1cccc2c(=O)c(SC(F)(F)C(F)C(F)(F)F)c(C)[nH]c12 (stereo not given) | ? | -1% | -8% | 5
CCCCCCNc1c([N+](=O)[O-])cc(C)cc1[N+](=O)[O-] | -0.2% | . | -12% | .
O=C(NCc1cccnc1)Nc1ccc(Cl)c(Cl)c1 | 2.4% | -33% | -3% | .
Cc1ccc(-c2cc(N)n(-c3ccc(F)cc3)n2)cc1 | 1.6% | -73% | -10% | 0
COc1ccc(-c2nnn(CC(=O)N3CCN(c4ccccc4OC)CC3)n2)cc1 | -0.4% | -15% | -4% | -1
O=C(NCc1ccccc1)c1ccc(N2C(=O)C3CCCCC3C2=O)cc1 (stereo not given) | -2.4% | -4% | 1% | -1
O=C1C2C3C=CC(C3)C2C(=O)N1/N=C/c1cn(Cc2ccccc2)c2ccccc12 (stereo not given) | -0.5% | -35% | 16% | 6
COc1cc(OC)c(C(=O)OCC(=O)N(Cc2ccccc2)C(C)(C)C)cc1OC | -0.2% | 4% | 0% | -1
C=CCn1c(COc2ccc(F)cc2)nnc1SCC(=O)NC1CCS(=O)(=O)C1 (stereo not given) | 1.0% | . | 1% | .
N#C/C(=C\c1ccc2c(c1)OCO2)C(N)=S | 2.7% | 2% | -7% | -2
Nc1nnc(-c2ccccc2F)s1 | 0.2% | -24% | 19% | 6
O=C(CCc1ccccc1Cl)N1CCN(S(=O)(=O)c2ccccc2)CC1 | -0.1% | . | 21% | .
Cc1cc(CN(C)C(=O)c2cc(COc3ccc(C)c(C)c3)on2)n[nH]1 | -1.3% | -24% | -9% | .
Cc1ccc(CNC(=O)CN2CCN(Cc3ccc(C)cc3)C2=O)cc1 | -1.7% | 1% | 14% | -16
Cc1onc(C(=O)NCc2ccc(F)cc2)c1[N+](=O)[O-] | -0.5% | 2% | -3% | 1
COc1cc(NC(=O)CN2C(=O)COc3ccc(S(=O)(=O)N4CCOCC4)cc32)cc(OC)c1 | -1.5% | -2% | 2% | .
CCN(CC)C(=O)Cn1cc(S(=O)(=O)Cc2cccc([N+](=O)[O-])c2)c2ccccc21 | -2.2% | -2% | 40% | .
O=C(CCSc1ccccc1)Nc1nccs1 | 0.4% | -24% | -5% | 0
Cc1ccc(S(=O)(=O)Nc2nc(C)cc(-n3nc(C)cc3C)n2)cc1 | -0.7% | -6% | 0% | 6
O=C(Cc1cccs1)N1CCC(c2nc3c(nnn3Cc3ccccc3)c(=O)[nH]2)CC1 | 0.2% | -2% | 31% | 2
COc1ccc(CCNC(=O)CSc2nc3ccsc3c(=O)n2CC2CCC(C(=O)O)CC2)cc1OC (stereo not given) | 0.0% | 6% | ? | .
CCOC(=O)N1CCN(C(=O)C2CCN(S(C)(=O)=O)CC2)CC1 | -0.5% | 3% | -6% | 2
CC(OC(=O)c1cn(-c2ccccc2)nc1-c1cccnc1)C(N)=O (stereo not given) | 1.2% | 2% | 0% | 4
CCN(CC)S(=O)(=O)c1ccc2c(c1)c(=O)c(C(=O)NCc1ccco1)cn2C | -4.4% | 1% | 46% | 0
CC(C)OCCCNC(=S)Nc1ccc2nc3n(c(=O)c2c1)CCCCC3 | -1.9% | -1% | 20% | 1
C=CCc1cccc(C=Nc2cc(Br)ccc2O)c1O | 0.0% | 1% | 1% | 8
CN(C)C(CNc1ccc(S(C)(=O)=O)cc1[N+](=O)[O-])Cc1ccccc1 (stereo not given) | ? | -4% | -4% | .
COC(=O)c1c(SCc2ccc(C#N)cc2)nc(=O)[nH]c1C | 3.0% | 6% | 3% | 1
O=S(=O)(CCN1C=CC(C(F)(F)F)=NCC1)c1ccc(Cl)cc1Cl | -2.5% | 0% | 0% | -5
Cc1cccc(NC(=O)C(C)SCc2ccccc2)c1 (stereo not given) | -0.5% | -14% | 5% | .
COc1cccc(N/C(N)=N/c2nc(CSc3ccccn3)cc(=O)[nH]2)c1 | . | 26% | . | 0
CCCCn1c(N)c(N(CC)C(=O)c2ccc([N+](=O)[O-])c(C)c2)c(=O)[nH]c1=O | 9.0% | 4% | 0% | .
Cc1nc([N+](=O)[O-])c(C(=O)OCc2ccc(C#N)cc2)n1C | -0.5% | -1% | 19% | -8

A draw from above in order of heavy-atom count, largest number first.
Molecule | Rango-impB inh | miR-21 reporter | Rango release inh | GLA inh pH 4.5
CN(C)C(CNc1ccc(S(C)(=O)=O)cc1[N+](=O)[O-])Cc1ccccc1 (stereo not given) | ? | -4% | -4% | .
O=S(=O)(CCN1C=CC(C(F)(F)F)=NCC1)c1ccc(Cl)cc1Cl | -2.5% | 0% | 0% | -5
COC(=O)c1c(SCc2ccc(C#N)cc2)nc(=O)[nH]c1C | 3.0% | 6% | 3% | 1

New compounds follow
Molecule | Rango-impB inh | miR-21 reporter | Rango release inh | GLA inh pH 4.5
CCOC(=O)C1CCN(c2nc3ccccc3n2CC(=O)c2ccccc2)CC1 | 0.6% | 5% | 1% | -3
COC(=O)C(Cc1ccccc1)OS(N)(=O)=O (stereo not given) | 0.0% | 1% | -6% | .
CC(=O)NC1C(=O)N(Cc2ccccc2)c2ccc(Br)cc21 (stereo not given) | 1.7% | 5% | -9% | -20
CCC1CCCCN1C(=O)COC(=O)CN(C)S(=O)(=O)c1ccc(NC(C)=O)cc1 (stereo not given) | -0.3% | . | -11% | .
COc1ccc2[nH]c(=O)c(CN(CCc3ccccc3)Cc3nnnn3CC3CCCO3)cc2c1 (stereo not given) | ? | -5% | ? | 7
COc1ccc(C(=O)c2sc(Nc3cccc(OC)c3)c(C(=O)Nc3cccc(C)c3C)c2N)cc1 | -0.4% | -2% | -9% | 1
CCC(=O)NNc1ncnc2c1cnn2-c1ccccc1 | -2.3% | -1% | -4% | -1
COc1ccc(N2CC(O)(c3ccc(C)cc3)[N+]3=C2CCCC3)cc1 (stereo not given) | -1.8% | -1% | -5% | 1
N#CC1=C(SCC(=O)Nc2ccc(C(=O)O)cc2)NC(=O)CC1c1ccco1 (stereo not given) | -1.5% | 4% | -18% | 2
Nc1nnc(SCC(=O)Nc2cc(S(=O)(=O)N3CCOCC3)ccc2Cl)s1 | -2.2% | -6% | 0% | -5
CCN(CC)C1CCN(C(=O)c2ccc3nc(Cc4ccc(OC)cc4)oc3c2)C1 (stereo not given) | ? | -4% | 5% | .
O=C(O)c1cc2nc(-c3cccs3)cc(C(F)(F)F)n2n1 | ? | -1% | -10% | -5
N#CCCN(C(=O)COC(=O)C1=NNC(=O)CC1)c1ccccc1 | 3.0% | . | 14% | .
Cc1ccc(C(=O)CCC(=O)Nc2ccccc2F)cc1 | -1.2% | -36% | -20% | .
O=c1nc(N2CCCCC2)nc(Nc2ccccc2)[nH]1 | -8.7% | -4% | 4% | 6
CC(C)C(NC(=O)C12CC3CC(CC(C3)C1)C2)C(=O)O (stereo not given) | 0.3% | -4% | 2% | 3
CC(NC(=O)c1ccc(F)cc1)C(=O)NC1=NCCS1 (stereo not given) | 0.9% | 1% | -3% | 0
O=C(Nc1cccnc1)c1ccc(COc2cc(Cl)ccc2Cl)o1 | -0.3% | 7% | 2% | 0
Cc1nnc(NS(=O)(=O)c2ccc(N=Nc3ccc(N)nc3N)cc2)s1 | ? | . | ? | .
Cc1cc(Nc2ccc(C)c(Cl)c2)nc(N2CCOCC2)n1 | -0.3% | -29% | -16% | -11
O=C(NC12CC3CC(CC(C3)C1)C2)c1ccccc1O | -2.3% | -21% | 9% | -4
O=C(C[n+]1ccc(C(=O)N/N=C/c2ccc(Br)cc2)cc1)c1ccccc1 | ? | 0% | ? | -1
Oc1ccc(/C=N/N(Cc2ccccc2)c2ccccc2)c(O)c1O | 0.3% | 1% | -13% | -7
Cc1ccccc1NC(=O)Cc1nc(-c2ccc3ccccc3c2)cs1 | 1.9% | -11% | 3% | 0
CC(=O)Nc1nnc(SCC(=O)NC(C)(C)C)s1 | 4.6% | -1% | -11% | -3
COc1ccc(NC(=S)N(Cc2cccnc2)Cc2cc3cc(OC)c(OC)cc3[nH]c2=O)cc1 | 0.0% | 1% | -23% | 7
COC(=O)c1nc(N)sc1-c1ccc(Cl)cc1 | -0.1% | 9% | -1% | -2
COc1ccccc1C(=O)NC(=O)COC(=O)C1CC1 | -2.3% | . | -1% | .
CC(=O)Nc1ccc(/C=C2\CCc3ccccc3C2=O)cc1 | -2.5% | -28% | 1% | .

Screening results (PubChem)

Some of the compounds tested. The share of hits here may be higher or lower than overall.
